Vaccinia inh: blocks a specific stage of Vaccinia orthopoxvirus infection; activity change (mCherry), % (concentration not given with the values); Vaccinia-infected cells, mCherry/Venus stage reporter fluorescence; active compounds read low; some inactives read as strong as hits; actives 0.01% (n = 89,000);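 active means mCherry past -33% and 40 or more points under the early reporter, replicates agreeing; inconclusive means past -33% without that gap or agreement; tested in A549 cells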;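 further: scaled between vehicle wells and reference inhibitor wells; 23 nL library stock went into each well; one replicate is shown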
Vaccinia inh Venus: second read-out of Vaccinia inh, no call of its own (marks repeat the call); activity change (Venus), %; measured here: Venus reporter, other viral stage;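 negative = less Venus signal; first of two replicates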
* = called active by the depositor; ? = inconclusive; . = not tested or not shown.

Start of the listing, in advance:
SMILES	Vaccinia inh	Vaccinia inh Venus
Cc1noc(C)c1S(=O)(=O)N(C)C[C@H]1Oc2c(NC(=O)c3cnccn3)cccc2C(=O)N([C@@H](C)CO)C[C@H]1C	7	2
O=C(C[C@H]1CC[C@@H]2[C@H](COC[C@H](O)CN2S(=O)(=O)c2ccccc2)O1)NCCN1CCCCC1	-7	8
CCCC#Cc1cnc2c(c1)C(=O)N([C@@H](C)CO)C[C@H](C)[C@@H](CN(C)C(=O)C1CC1)O2	5	1
C[C@H](CO)N1C[C@H](C)[C@@H](CN(C)S(=O)(=O)c2ccccc2F)Oc2cc(-c3ccncc3)ccc2S1(=O)=O	-13	-14
CC(C)CC#Cc1ccc2c(c1)O[C@H](CN(C)Cc1cncnc1)[C@@H](C)CN([C@@H](C)CO)S2(=O)=O	?	.
O=C(C[C@H]1CC[C@@H]2[C@H](COC[C@@H](O)CN2C(=O)c2ccccc2F)O1)NCc1ccc(Cl)cc1	-5	-5
C[C@H](CO)N1C[C@H](C)[C@@H](CN(C)Cc2ccc3c(c2)OCO3)Oc2ccc(NS(=O)(=O)c3cccs3)cc2CC1=O	-21	-19
C#CCNC(=O)C1=C[C@@H](c2ccccc2)[C@H](CCCO)[C@@H](OCC)O1	5	0
Cc1noc(C)c1NC(=O)Nc1ccc2c(c1)C(=O)N([C@H](C)CO)C[C@H](C)[C@H](CN(C)C(=O)Cc1ccccc1)OCCCC[C@H](C)O2	26	17
Cc1noc(C)c1NC(=O)Nc1cccc2c1O[C@@H](CN(C)S(=O)(=O)c1ccc(F)cc1)[C@@H](C)CN([C@@H](C)CO)C2=O	6	7

All compounds of this part (from the top)
SMILES	Vaccinia inh	Vaccinia inh Venus
Cc1noc(C)c1S(=O)(=O)N(C)C[C@H]1Oc2c(NC(=O)c3cnccn3)cccc2C(=O)N([C@@H](C)CO)C[C@H]1C	7	2
O=C(C[C@H]1CC[C@@H]2[C@H](COC[C@H](O)CN2S(=O)(=O)c2ccccc2)O1)NCCN1CCCCC1	-7	8
CCCC#Cc1cnc2c(c1)C(=O)N([C@@H](C)CO)C[C@H](C)[C@@H](CN(C)C(=O)C1CC1)O2	5	1
C[C@H](CO)N1C[C@H](C)[C@@H](CN(C)S(=O)(=O)c2ccccc2F)Oc2cc(-c3ccncc3)ccc2S1(=O)=O	-13	-14
CC(C)CC#Cc1ccc2c(c1)O[C@H](CN(C)Cc1cncnc1)[C@@H](C)CN([C@@H](C)CO)S2(=O)=O	?	.
O=C(C[C@H]1CC[C@@H]2[C@H](COC[C@@H](O)CN2C(=O)c2ccccc2F)O1)NCc1ccc(Cl)cc1	-5	-5
C[C@H](CO)N1C[C@H](C)[C@@H](CN(C)Cc2ccc3c(c2)OCO3)Oc2ccc(NS(=O)(=O)c3cccs3)cc2CC1=O	-21	-19
C#CCNC(=O)C1=C[C@@H](c2ccccc2)[C@H](CCCO)[C@@H](OCC)O1	5	0
Cc1noc(C)c1NC(=O)Nc1ccc2c(c1)C(=O)N([C@H](C)CO)C[C@H](C)[C@H](CN(C)C(=O)Cc1ccccc1)OCCCC[C@H](C)O2	26	17
Cc1noc(C)c1NC(=O)Nc1cccc2c1O[C@@H](CN(C)S(=O)(=O)c1ccc(F)cc1)[C@@H](C)CN([C@@H](C)CO)C2=O	6	7
C[C@@H]1CCCCO[C@H](CN(C)S(=O)(=O)c2cccs2)[C@@H](C)CN([C@H](C)CO)C(=O)c2cc(NS(=O)(=O)c3cn(C)cn3)ccc2O1	16	5
CCC(=O)Nc1ccc2c(c1)C(=O)N(C)C[C@H](OC)[C@H](C)CN(CC1CC1)[C@H](C)CO2	3	-3
COc1ccc(NC(=O)N[C@H]2C=C[C@@H](CC(=O)NCc3ccccn3)O[C@H]2CO)cc1	5	5
C[C@@H]1CCCCO[C@H](CN(C)C(=O)C2CCCCC2)[C@@H](C)CN([C@@H](C)CO)C(=O)c2cc(NS(=O)(=O)c3ccccc3)ccc2O1	2	3
COc1ccc(S(=O)(=O)Nc2ccc3c(c2)CC(=O)N([C@H](C)CO)C[C@@H](C)[C@H](CN(C)CC2CC2)O3)cc1	31	-2
O=C(C[C@@H]1C=C[C@@H](NS(=O)(=O)c2ccc(F)cc2)[C@H](CO)O1)NC1CCCCC1	-10	-1
C[C@H](CO)N1C[C@H](C)[C@H](CN(C)S(=O)(=O)c2ccc(F)cc2)Oc2ncc(-c3cccc(C(F)(F)F)c3)cc2C1=O	?	.
COc1ccccc1NC(=O)N[C@H]1CC[C@@H](CCn2cc(-c3ccccc3)nn2)O[C@@H]1CO	-3	-7
O=C(C[C@H]1CC[C@H]2NC[C@H](O)COC[C@@H]2O1)NCCN1CCCC1	8	1
COc1ccc(S(=O)(=O)Nc2ccc3c(c2)C(=O)N([C@@H](C)CO)C[C@H](C)[C@@H](CN(C)S(=O)(=O)c2cn(C)cn2)OCCCC[C@H](C)O3)cc1	25	15
CCC(=O)N(C)C[C@@H]1Oc2cc(C3=CCCC3)ccc2S(=O)(=O)N([C@H](C)CO)C[C@@H]1C	-5	2
C[C@@H]1CN([C@@H](C)CO)C(=O)c2cc(NC(=O)Cc3ccccc3)ccc2O[C@H]1CN(C)Cc1ccc(C(F)(F)F)cc1	?	.
C[C@@H]1CN([C@@H](C)CO)C(=O)Cc2cc(NC(=O)c3ccncc3)ccc2O[C@H]1CN(C)Cc1ccc(C(=O)Nc2ccccc2N)cc1	14	7
CC(=O)N[C@H]1CC[C@H](CCNC(=O)C2CCCC2)O[C@H]1CO	-2	7
COc1ccc(C#Cc2ccc([C@@H]3[C@@H](CO)N4CCCCN(C(=O)Nc5ccccc5)C[C@@H]34)cc2)cc1	?	.

Later entries
SMILES	Vaccinia inh	Vaccinia inh Venus
COCC#Cc1ccc2c(c1)O[C@@H](CN(C)Cc1ccncc1)[C@H](C)CN([C@@H](C)CO)S2(=O)=O	-11	-11
C[C@H](CO)N1C[C@H](C)[C@H](CN(C)C)Oc2ccc(NC(=O)C3CC3)cc2CC1=O	18	13
O=C(C1CCOCC1)N1C[C@@H]2[C@H](c3ccccc31)[C@@H](CO)N2Cc1ccccc1F	-5	-7
O=C(Nc1cccc(F)c1)N1C[C@H]2[C@@H](c3ccccc31)[C@H](CO)N2C(=O)c1ccccc1F	16	7
C[C@@H]1CN([C@@H](C)CO)C(=O)c2cc(C#CC3(O)CCCC3)cnc2O[C@H]1CN(C)Cc1ccccc1	6	2
Cc1ccc(S(=O)(=O)Nc2ccc3c(c2)C(=O)N([C@@H](C)CO)C[C@H](C)[C@H](CN(C)Cc2ccc(C(=O)O)cc2)O3)cc1	-2	-21
C[C@@H]1CN([C@H](C)CO)C(=O)c2cc(NC(=O)c3ccncc3)ccc2O[C@@H]1CN(C)Cc1ccc(Oc2ccccc2)cc1	-6	-3
CC=Cc1ccc2n(c1=O)C[C@@H]1[C@@H](CO)[C@H](C(=O)NCC3CC3)[C@H]2N1C(=O)C1CC1 (mixture of isomers)	2	8
C[C@@H]1CCCCO[C@H](CN(C)C(=O)CCC(F)(F)F)[C@@H](C)CN([C@H](C)CO)C(=O)c2cc(NS(=O)(=O)c3ccccc3)ccc2O1	25	13
C[C@H](CO)N1C[C@H](C)[C@H](CN(C)Cc2ccccc2C(F)(F)F)OCc2cn(nn2)CCCC1=O	9	6
C[C@H](CO)N1C[C@H](C)[C@H](CN(C)Cc2ccc3c(c2)OCO3)Oc2ncc(-c3ccc(F)cc3)cc2C1=O	?	.
C[C@@H]1CCCCO[C@@H](CN(C)C(=O)C2CCCCC2)[C@@H](C)CN([C@H](C)CO)C(=O)c2cc(NC(=O)Nc3ccc(F)cc3)ccc2O1	14	9
C[C@H](CO)N1C[C@H](C)[C@H](CN(C)Cc2ccc(Cl)c(Cl)c2)Oc2ccc(NC(=O)CCC(F)(F)F)cc2C1=O	-8	1
Cc1noc(C)c1S(=O)(=O)Nc1cccc2c1O[C@H](CN(C)Cc1ccc(C(=O)Nc3ccccc3N)cc1)[C@H](C)CN([C@@H](C)CO)C2=O	1	1
CO[C@@H]1CN(C)C(=O)c2ccc(NC(=O)C3CC3)cc2OC[C@@H](C)NC[C@H]1C	13	7
O=C(Cc1ccccc1)N1C[C@@H]2[C@H](c3ccccc31)[C@H](CO)N2C(=O)C1CC1	-4	-2
COc1cccc(-c2ccc3c(c2)[C@H]2[C@H](CCN2C(=O)Nc2ccccc2OC)[C@@H](CO)N3C)c1	?	.
CN(C)C(=O)c1cccc(-c2ccc(C3[C@@H]4CN(S(=O)(=O)c5ccc(F)cc5)C[C@H]3N4)cc2)c1 (stereo partly drawn)	?	-14
N#C[C@H]1[C@@H](c2ccc(-c3ccccc3F)cc2)[C@H](CO)N1C(=O)c1ccccn1	-11	-12
CCC(=O)Nc1ccc2c(c1)OC[C@H](C)N(CC1CC1)C[C@H](C)[C@@H](OC)CN(C)C2=O	16	8
COc1ccc(NC(=O)N(C)C[C@@H]2Oc3ncc(C#C[C@@H](C)O)cc3C(=O)N([C@H](C)CO)C[C@@H]2C)cc1	30	16
Cc1noc(C)c1NC(=O)N(C)C[C@H]1OCCCC[C@@H](C)Oc2ccc(NC(=O)Cc3ccccc3)cc2C(=O)N([C@@H](C)CO)C[C@H]1C	12	7
C[C@H](CO)N1C[C@H](C)[C@@H](CN(C)S(C)(=O)=O)OCCCC[C@H](C)Oc2ccc(NC(=O)Nc3ccccc3)cc2C1=O	13	-4
Cc1noc(C)c1NC(=O)N(C)C[C@H]1OCCCC[C@H](C)Oc2ccc(NC(=O)Cc3ccccc3)cc2C(=O)N([C@H](C)CO)C[C@@H]1C	10	11
O=C(C[C@@H]1C[C@@H]2c3cc(NC(=O)Nc4ccccc4F)ccc3O[C@@H]2[C@@H](CO)O1)NCCc1ccccc1	5	10

(listing goes on)
SMILES	Vaccinia inh	Vaccinia inh Venus
COc1ccc(S(=O)(=O)Nc2ccc3c(c2)C(=O)N([C@H](C)CO)C[C@H](C)[C@@H](CN(C)C(=O)c2ccncc2)OCCCC[C@@H](C)O3)cc1	29	13
CCCC#Cc1ccc2c(c1)O[C@@H](CN(C)C(=O)CN(C)C)[C@@H](C)CN([C@@H](C)CO)S2(=O)=O	-32	-18
O=C(C[C@@H]1C[C@H]2c3cc(NC(=O)c4cccnc4)ccc3O[C@H]2[C@@H](CO)O1)NCCN1CCCCC1	-8	-2
C[C@H]1CCCCO[C@H](CN(C)C(=O)C2CCCCC2)[C@@H](C)CN([C@@H](C)CO)C(=O)c2cc(NC(=O)Nc3ccccc3)ccc2O1	-23	-14
Cc1noc(C)c1NC(=O)Nc1ccc2c(c1)CC(=O)N([C@H](C)CO)C[C@H](C)[C@H](CN(C)Cc1ccccc1)O2	6	4
CC(C)COC(=O)N(C)C[C@H]1OCc2ccccc2-c2c(n(C)c3ccccc23)C(=O)N([C@H](C)CO)C[C@@H]1C	?	.
O=C(C[C@H]1CC[C@@H]2[C@H](COC[C@H](O)CN2S(=O)(=O)c2ccc(F)cc2)O1)N[C@H]1CCN(Cc2ccccc2)C1	-18	-9
CN1C(=O)c2cc(NC(=O)c3cccc(C(F)(F)F)c3)ccc2OC[C@@H]2O[C@H](CC(=O)O)CC[C@H]21	3	13
CC(C)NC(=O)Nc1ccc2c(c1)C(=O)N([C@H](C)CO)C[C@H](C)[C@@H](CN(C)C(=O)CCCN(C)C)OCCCC[C@H](C)O2	34	2
C[C@@H]1CN([C@@H](C)CO)C(=O)c2cc(-c3ccccc3)cnc2O[C@H]1CN(C)C(=O)c1ccccn1	12	13
N#C[C@H]1N[C@@H](CO)[C@@H]1c1ccc(C#CC2CCCC2)cc1	6	9
C[C@H](CO)N1C[C@H](C)[C@@H](CN(C)Cc2ccc(C(=O)O)cc2)Oc2c(NC(=O)NC3CCCCC3)cccc2C1=O	20	11
COc1ccc(NC(=O)Nc2cccc3c2O[C@H](CN(C)CC2CCCCC2)[C@H](C)CN([C@H](C)CO)C3=O)cc1	6	5
C[C@@H]1CN([C@@H](C)CO)C(=O)CCCn2nncc2CO[C@H]1CN(C)C(=O)Nc1ccnc(N2CCOCC2)c1	12	4
CO[C@H]1CN(C)C(=O)c2cc(NC(=O)NC(C)C)ccc2OC[C@H](C)N(C(=O)NC(C)C)C[C@@H]1C	5	-2
C[C@@H]1CCCCO[C@H](CN(C)Cc2ccc(C(=O)Nc3ccccc3N)cc2)[C@@H](C)CN([C@H](C)CO)C(=O)c2cc(NS(=O)(=O)c3ccc(Cl)cc3)ccc2O1	-2	-6
C[C@H](CO)N1C[C@H](C)[C@@H](CN(C)C(=O)Nc2ccccc2)OCCCC[C@H](C)Oc2ccc(NC(=O)Nc3ccc4c(c3)OCO4)cc2C1=O	-2	-4
O=C(C[C@H]1CC[C@@H]2[C@H](COC[C@@H](O)CN2Cc2nccs2)O1)NCc1ccccc1	2	6
C[C@@H]1CN([C@H](C)CO)C(=O)Cc2cc(NS(C)(=O)=O)ccc2O[C@@H]1CN(C)C(=O)Nc1ccccc1	20	2
C[C@@H]1CN([C@H](C)CO)C(=O)c2cc(NS(C)(=O)=O)ccc2O[C@@H](C)CCCCO[C@@H]1CN(C)CC1CCCCC1	-3	4
CCC(=O)Nc1ccc2c(c1)C(=O)N(C)C[C@@H](OC)[C@@H](C)CN(C(=O)Cc1ccccn1)[C@H](C)CO2	11	15
COCC#Cc1ccc([C@H]2[C@@H](CO)N3C(=O)CN(C(=O)C4CC4)C[C@H]23)cc1	6	0
O=C(Nc1ccc2c(c1)OCO2)N[C@H]1C=C[C@H](CC(=O)N2CCN(c3ccccc3)CC2)O[C@@H]1CO	-11	-5
CNC[C@H]1Oc2c(NC(=O)c3nc4ccccc4s3)cccc2C(=O)N([C@@H](C)CO)C[C@H]1C	-13	-1
CO[C@@H]1CN(C)C(=O)c2cc(NC(=O)c3ccccc3F)ccc2OC[C@H](C)N(C(=O)c2ccccc2F)C[C@H]1C	21	18
C=CCN1C(=O)[C@]2(O[C@H](CCn3cc([C@H](O)c4ccccc4)nn3)[C@@H]([Si](C)(C)c3ccc(OC)cc3)[C@@H]2C)c2cc(N3CCC3=O)ccc21	?	.
CCCC(=O)Nc1ccc2c(c1)OC[C@H](C)N(C(=O)c1ccccc1F)C[C@H](C)[C@@H](OC)CN(C)C2=O	5	5

High-throughput results: PubChem BioAssay, Broad Institute

These rows are one share of the data. The share of hits here may be higher or lower than overall.
